# Compound activity from PubChem.
# PKD1 inh – inhibitors of human PKD1 kinase, biochemical, fluorescence polarization. PKD1 kinase fluorescence polarization assay. Serine/threonine-protein kinase D1 (Homo sapiens), Q15139. 200,000 compounds, 0.056% hits. inhibition, %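 (about 10 µM by stock and volumes)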;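 active = inhibition of 50% or more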;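 note: controls were vehicle for no effect and a reference inhibitor for full effect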
# Target sequence (Q15139 whole entry, looked up): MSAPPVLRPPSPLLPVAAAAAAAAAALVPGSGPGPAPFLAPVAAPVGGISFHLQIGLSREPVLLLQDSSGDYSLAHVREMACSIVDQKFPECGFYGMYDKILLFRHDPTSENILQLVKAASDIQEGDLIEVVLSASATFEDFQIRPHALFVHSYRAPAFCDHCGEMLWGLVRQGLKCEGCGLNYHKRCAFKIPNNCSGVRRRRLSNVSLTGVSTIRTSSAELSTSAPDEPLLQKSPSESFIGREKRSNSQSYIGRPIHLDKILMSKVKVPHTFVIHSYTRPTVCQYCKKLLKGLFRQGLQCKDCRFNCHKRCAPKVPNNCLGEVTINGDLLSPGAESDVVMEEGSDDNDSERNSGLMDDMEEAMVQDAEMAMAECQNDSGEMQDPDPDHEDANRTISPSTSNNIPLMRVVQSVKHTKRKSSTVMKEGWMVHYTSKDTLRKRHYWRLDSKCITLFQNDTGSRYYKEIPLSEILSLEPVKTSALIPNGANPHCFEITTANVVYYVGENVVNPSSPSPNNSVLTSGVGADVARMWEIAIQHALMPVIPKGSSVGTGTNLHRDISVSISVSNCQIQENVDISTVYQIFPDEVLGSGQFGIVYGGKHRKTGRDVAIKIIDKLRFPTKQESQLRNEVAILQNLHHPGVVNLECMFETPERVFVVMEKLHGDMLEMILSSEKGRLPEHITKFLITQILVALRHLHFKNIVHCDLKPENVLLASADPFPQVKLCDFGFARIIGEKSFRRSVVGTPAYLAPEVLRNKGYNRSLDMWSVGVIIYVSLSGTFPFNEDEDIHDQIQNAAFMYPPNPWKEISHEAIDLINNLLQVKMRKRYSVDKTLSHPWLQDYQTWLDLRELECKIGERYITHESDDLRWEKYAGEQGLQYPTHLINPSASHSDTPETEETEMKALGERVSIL
# HSV replic up – enhancers of HSV replication in host cells, fold increase, host cell viability; maximum fold increase; 220,000 compounds, 0.005% hits; HSV replication augmentation in cells; AID 1956, 2009;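 active = peak rise of 1.5-fold or more in the series; tested in PC3 cells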;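 note: first round at 10 µM; read as green reporter fluorescence; hits show the peak of a series up to 25 µM; 1 = signal of infected wells without compound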
# Insulin prom inh – inhibitors of insulin promoter-driven GFP, primary screen, imaging, TRM-6 cells (human fetal islet line), eGFP reporter, cell count; reporter expression induced with tamoxifen; inhibition, % at 2 µM; 130,000 compounds, 0.9% hits; AID 1273, 2008;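 active = inhibition above the mean plus 3 SD, with well images judged a real hit on visual review, cut at about 60% in these data, passing the limit was not always enough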
# GALR2 ag – GALR2 receptor agonists, primary screen, cell-based; Galanin receptor type 2 (Homo sapiens), O43603; GALR2-expressing cells, agonist activation read-out; activation, %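 (tested at 5 µM)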; 140,000 compounds, 0.48% hits;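 active = above mean plus 3 SD of all compounds, about 5% in these data, not always enough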;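 note: 0% = vehicle buffer wells and 100% = reference agonist at full effect; tested in CHO reporter cells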
# RGS16-Gao – modulators of RGS16 binding to Galphao, primary screen, biochemical, human proteins, multiplexed bead flow cytometry; binding response (% of control), % at 10 µM; 220,000 compounds, 0.38% hits; bead-based flow cytometry RGS16-Galphao binding, fluorescence; actives lie on both sides; AID 1441, 2008; Regulator of G-protein signaling 16 (Homo sapiens) + Guanine nucleotide-binding protein …;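 active = below 25% or above 175%, edge rows of some plates excepted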;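 note: Galphao activated by GDP with aluminum fluoride before binding; 100% = wells without compound and 0% = beads without RGS; some results beyond the cut were filed as inactive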
# Insulin prom inh cell count – second read-out of Insulin prom inh, no call of its own (marks repeat the call); normalized cell count, %; measured here: cell count, toxicity; reference of the scale not given here;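 cells exposed to compound for 48 h; stained nuclei by imaging scaled within each plate; lower means fewer cells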
# HSV replic up primary fold – further read-out of HSV replic up, marked with its call; fold increase; compound at 10 µM; measured here: primary screen fold increase 10 uM; tested in PC3 cells;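 GFP signal in the first replicate; 1 = infected wells without compound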
# Active calls of the source: *; i = inactive; x = not tested or not shown. Random draw from the library. About 1.2% of those tested had a hit in this group.
SMILES,Insulin prom inh cell count,HSV replic up primary fold,Insulin prom inh,PKD1 inh,GALR2 ag,RGS16-Gao,HSV replic up
Cc1ccccc1CN1CCNC1=O,122,0.8,-6,0,-4.2,102,i
Cc1cc(-c2n[nH]c(=S)n2-c2ccc(C)c(C)c2)no1,143,1,-23,-3,-0.5,106,i
Cc1c(-n2c(SCC(=O)NC(C)C)nc3ccccc3c2=O)c(=O)n(-c2ccccc2)n1C,x,0.94,x,-4,x,102,i
C=C(C)C1CC=C(C)/C(=N/Nc2ccccc2[N+](=O)[O-])C1 (stereo not drawn),92,0.85,18,5,-1.6,102,i
CCCc1nc2c(C)cc(C)cc2c(N)c1CC,74,0.91,52,-7,-1.1,99,i
CN1C(=O)CC(N2CCN(CC(=O)N3CCCC3)CC2)C1=O (stereo not drawn),83,0.98,-73,-7,-2.1,95,i
O=C(NCc1cccnc1)c1cc2nc(-c3ccc4c(c3)OCO4)cc(C(F)(F)F)n2n1,x,0.9,x,0,x,103,i
Cc1cc(/C=N/NC(=O)c2ccsc2)c(C)n1-c1cnccn1,98,0.94,0,2,x,100,i
O=C(Nc1nnc(-c2ccccc2Cl)o1)c1ccc(S(=O)(=O)N2CCCCCC2)cc1,30,0.98,-400,3,-2.7,104,i
CN1C(=O)C(CCC(=O)O)NC1=S (stereo not drawn),x,0.87,x,x,x,100,i
Cc1cc(C)c(/C=N/NC(=O)c2nnn(-c3nonc3N)c2COc2ccc(F)cc2)c(C)c1,x,0.92,x,x,x,100,i
CCOC(=O)C1CCN(S(=O)(=O)c2ccc3c4c(cccc24)C(=O)N3)CC1,x,0.97,x,3,0.8,92,i
COc1ccccc1NC(=S)N1CCC(C(=O)c2ccc(F)cc2)CC1,x,1.1,x,0,x,103,i
C[C@H](NC(=O)c1nc[nH]c1C(=O)NC1CCN(C(=O)OC(C)(C)C)CC1)C(=O)OC(C)(C)C,x,x,x,-1,x,106,x
N#CC1=C(N)C2=CCCC[C@H]2[C@H](c2cccc(F)c2)C1(C#N)C#N,x,1.2,x,-7,0.0,113,i
CCOC(=O)CSC1=C(C#N)C(=O)NC(c2ccc(OC)cc2)S1 (stereo not drawn),49,1,21,-10,-1.9,105,i
Cc1ccc(C)c(C(=O)NC(C)CCc2ccccc2)c1 (stereo not drawn),136,x,-36,-6,x,109,x
COc1ccc(Nc2nc(N)nc(CN3CCC(Cc4ccccc4)CC3)n2)cc1,104,0.74,0,-3,-0.1,103,i
O=S1(=O)N=C(N2CCN(Cc3ccccc3)CC2)c2ccccc21,x,1.1,x,4,0.1,134,i
COc1cc(OC)cc(C(=O)NNC(=S)NCc2ccco2)c1,x,0.98,x,3,x,99,i

# Full records, looked up by structure.
# Cc1c(-n2c(SCC(=O)NC(C)C)nc3ccccc3c2=O)c(=O)n(-c2ccccc2)n1C reads Insulin prom inh cell count: x; HSV replic up primary fold: 0.94; Insulin prom inh: x; PKD1 inh: -4; GALR2 ag: x; RGS16-Gao: 102; HSV replic up: i
# Cc1cc(C)c(/C=N/NC(=O)c2nnn(-c3nonc3N)c2COc2ccc(F)cc2)c(C)c1 reads Insulin prom inh cell count: x; HSV replic up primary fold: 0.92; Insulin prom inh: x; PKD1 inh: x; GALR2 ag: x; RGS16-Gao: 100; HSV replic up: i

# Next records
SMILES,Insulin prom inh cell count,HSV replic up primary fold,Insulin prom inh,PKD1 inh,GALR2 ag,RGS16-Gao,HSV replic up
CCc1nn(C(C)C(=O)NCCN2CCN(c3cccc(C)c3C)CC2)c(=O)c2cc3occc3n12 (stereo not drawn),x,0.97,x,-16,0.7,149,i
O=C1Nc2ccccc2N(O)N1c1cc(-c2ccc(Cl)cc2)[nH]n1,52,0.94,15,0,x,112,i
CN(C)S(=O)(=O)c1cccc(NC(=O)COc2cccc(C#N)c2)c1,96,1,22,-4,-0.9,97,i
CCCCSc1nnc(-c2ccc(OC)cc2)n1C,128,0.93,33,-7,-2.1,93,i
Cc1cc(/C=C(\C#N)C(=O)NCc2cccs2)c(C)n1-c1ccccc1F,90,0.98,-13,-3,-2.0,104,i
O=C(CNC(=O)C1CCCCC1)Nc1ccc(Cl)cc1,133,0.95,-4,4,-2.7,102,i
COc1ccc(N2CCN(CCCNC(=O)Nc3ccccc3)CC2)cc1,76,1.1,-229,-1,-1.2,160,i
CC(=O)N1N=C(c2cccc(Cl)c2)OC1c1cccc([N+](=O)[O-])c1 (stereo not drawn),69,0.88,12,1,-0.6,141,i
CCOC(=O)NC1(Nc2cccc(Cl)c2)Oc2ccccc2O1,x,0.84,x,-9,-0.1,99,i
Cc1cccc(C)c1NC(=O)CNC(=O)c1c(C)nn(C)c1Cl,x,0.93,x,-4,x,101,i
CN(O)/C=C/C(=O)c1ccc(Br)cc1,x,0.98,x,-2,x,102,i
CCCCN(CC)CCNC(=O)CN1C(=O)COc2ccc(S(=O)(=O)N3CCCC3)cc21,153,1.1,-42,0,0.3,109,i
CCOC(=O)CCCCC(=O)c1[nH]c(=O)[nH]c1C[n+]1ccccc1,112,0.99,18,-8,x,106,i
N#Cc1ccccc1Sc1ccccc1C(=O)OCC(N)=O,x,0.98,x,10,x,101,i
CCOC(=O)N1CCN(c2ncnc3c2cnn3-c2ccc(OC)cc2)CC1,157,x,44,-17,-3.0,x,x
CC1CN(S(=O)(=O)c2cccc(C(=O)NCc3ccc4c(c3)OCO4)c2)CC(C)O1 (stereo not drawn),116,0.89,-7,-5,-1.5,103,i
CCC1CCc2[nH]nc(C(=O)O)c2C1 (stereo not drawn),x,1,x,-11,0.2,98,i
Cc1cccc(OCc2nnc(SCc3cc(=O)[nH]c4ccccc34)n2-c2ccccc2)c1,98,0.61,-31,2,0.0,69,i
COc1ccc(-c2cc(C(F)(F)F)nc(N3CCN(Cc4ccccc4)CC3)n2)cc1OC,x,1,x,-3,-2.9,102,i
CC(C)NC(=O)CSc1nc(Cc2cccs2)nc2ccccc12,132,0.87,-20,3,-0.2,28,i
Cc1ccc(CCC(=O)Nc2ccc(S(N)(=O)=O)cc2)o1,108,1,0,3,-1.6,101,i
CCCNC(=O)COC(=O)c1n[nH]c2ccccc12,x,0.96,x,-3,x,103,i
Nc1cc(S(=O)(=O)Nc2ccccc2Cl)ccc1N1CCOCC1,117,0.9,0,-1,x,95,i
Nc1nonc1C(=O)NC(c1ccccc1)c1ccccc1,84,1.1,-36,-9,-2.0,103,i
Cc1ccc([N+](=O)[O-])cc1NC(=O)c1ccc(CSc2ccccc2)cc1,x,0.92,x,-14,-1.5,107,i
CCn1c2ccccc2c2cc(NC(=O)CSc3nnc(C4CC4)n3Cc3ccco3)ccc21,96,0.99,0,-9,-0.5,53,i
COc1ccccc1/C=C/C(=O)NCC(=O)N/N=C/c1ccccc1[N+](=O)[O-],109,0.98,0,5,x,96,i
NC1=NN=C(N2N=C(c3ccc(Br)cc3)CC2(O)C(F)(F)F)n2ncnc2C1 (stereo not drawn),106,1,-29,-5,x,114,i
COc1cc2cc(CN(CCCO)S(=O)(=O)c3ccccc3)c(=O)[nH]c2cc1OC,106,0.8,19,4,-1.2,101,i
COc1cc(O)ccc1C=O,x,0.98,x,x,x,97,i
O=C(CN(c1ccccc1)S(=O)(=O)c1ccc(Cl)cc1)Nc1ccccc1C(=O)N1CCCC1,75,0.98,-94,-1,-2.4,101,i
CC(C)c1nc(SCC(=O)N2CCCC2)c2ccccc2n1,115,0.93,22,1,-1.1,95,i
CCn1c(=O)cc(OCC(=O)NCCc2ccc(OC)c(OC)c2)c2ccccc21,98,0.98,10,3,x,101,i
COc1ccc(NS(=O)(=O)c2ccc(NC(=O)Cc3cccs3)cc2)cc1,88,0.84,-27,4,-1.6,64,i
O=C(Nc1ccncc1)C1COc2ccccc2O1 (stereo not drawn),117,0.66,-29,-16,0.2,104,i
O=[N+]([O-])c1ccc(O)c(C=Nc2ccc3c(c2)OCO3)c1,x,1.1,x,x,x,103,i
Cc1cc2c(c(=O)n1Cc1ccccn1)C(C(C)C)C(C#N)=C(N)O2 (stereo not drawn),x,1,x,7,-1.4,95,i
CN(CCOc1ccc(-c2ccn(S(=O)(=O)c3c(Cl)cccc3Cl)n2)cc1)c1ccccn1,131,0.97,-30,-3,-1.1,97,i
O=C(O/N=C1/CCCc2occc21)c1ccc(F)cc1,90,1.1,31,1,x,101,i
COc1ccc(CNC(=O)c2cccc(NC(=O)c3ccccc3)c2)cc1,152,1.1,-19,12,x,99,i
Cc1ccc(C)c(C(=O)CN2C(=O)CCC2=O)c1,x,0.91,x,7,-1.4,97,i
Cc1ncoc1C(=O)Nc1ncc([N+](=O)[O-])s1,81,1.1,56,10,x,98,i
COc1ccc(S(=O)(=O)Cc2ccc(C(=O)N3CCN(c4ccc(Cl)cc4)CC3)o2)cc1,x,1,x,-5,-1.8,108,i
COc1ccc(S(=O)(=O)Nc2nc3ccccc3nc2Nc2ccc3c(c2)OCO3)cc1,72,0.99,-20,-1,-2.0,101,i
CC(C)CNc1oc(-c2ccc(F)cc2)nc1C#N,x,0.89,x,-9,-2.7,106,i
CCOC(=O)CNC(=O)C1(c2ccccc2)CCCC1,116,0.99,-30,-2,-0.1,153,i
COc1ccc(NC2=NCC(=O)N2c2ccccc2F)c(OC)c1,101,0.88,30,5,-3.0,105,i
CN(C)c1nc(Oc2ccc(N)cc2)nc(N(C)C)n1,69,1.1,68,-9,0.0,104,i
Cc1ccc(CN(C(=O)c2cc(=O)c3cc(Cl)c(C)cc3o2)C2CCS(=O)(=O)C2)cc1 (stereo not drawn),84,0.81,-35,-13,1.5,96,i
Cc1ccc(NC(=S)N2CCN(S(=O)(=O)c3c(F)cccc3F)CC2)cc1C,79,0.81,-36,1,x,99,i
Cn1c(SCC(=O)N2CCc3ccccc3C2)nnc1-c1cccs1,109,0.73,-3,5,-1.1,78,i
Cc1ccc(C(=O)N/C(=C\c2ccco2)C(=O)NCc2cccnc2)cc1,126,1.1,19,1,-2.1,79,i
Clc1ccc(-n2nnnc2-c2ccno2)cc1,x,1,x,x,x,111,i
Cc1ccc(CNC(=O)c2ccc(NC(=O)CCS(=O)(=O)c3cccs3)cc2)cc1,91,0.68,-29,-1,-4.1,115,i
Cc1ccc(C=Nc2cccnc2N)cc1,37,1.9,29,-4,0.5,98,i
O=S(=O)(c1ccc(F)cc1)N1CCCC(CO)C1 (stereo not drawn),100,x,29,10,-2.4,99,x
Cc1cc2c(sc3ccccc32)c(C)n1,x,1,x,x,x,101,i
COc1nc(C)c2cc(C)oc2n1,148,0.93,-86,-4,-1.3,110,i
Cc1ccc(-c2nc(Nc3ccc(N4CCOCC4)cc3)c3ccccc3n2)cc1,x,0.65,x,x,x,105,i
CCn1nc(C(=O)OCC(=O)c2ccc3c(c2)OCCO3)c2ccccc2c1=O,x,0.95,x,-9,-3.0,95,i

# Going on with the list:
SMILES,Insulin prom inh cell count,HSV replic up primary fold,Insulin prom inh,PKD1 inh,GALR2 ag,RGS16-Gao,HSV replic up
CN(C[C@H](Cc1ccccc1)N(C[C@@H](CC1CCCCC1)N(CCc1ccccc1)N=O)N=O)N=O,x,1.1,x,2,x,110,i
CC(=O)CC(C)=NCCN=C(C)CC(C)=O,x,0.95,x,-1,-2.7,85,i
CCCC(=O)Nc1ccc2oc(-c3ccncc3)nc2c1,124,1,-26,-5,-2.1,103,i
O=C(O)/C=C/C(=O)NNC(=O)c1ccc(Cl)cc1Cl,152,0.98,-13,0,x,106,i
O=C(N/N=C/C=C\c1cccc([N+](=O)[O-])c1)c1ccccn1,x,0.88,x,0,-0.4,103,i
CCOC(=O)C1=C(CC)OC(N)=C(C#N)C1c1ccc(NC(C)=O)cc1 (stereo not drawn),84,1,-31,-3,-1.4,70,i
Cc1ccc(NC(=S)NCCCN2CCOCC2)cc1,107,0.86,-19,-10,0.7,104,i
Cc1ccc(C2(C)NC(=O)N(CC(=O)NC(=O)NC3CCCC3)C2=O)cc1 (stereo not drawn),x,x,x,3,-0.8,x,x
